# High-throughput results from PubChem.
# TAR Tat displ: TAR RNA-Tat peptide displacers, HIV-1, primary screen, biochemical, FRET, FAM/TAMRA-labeled Tat | HIV-1 TAR RNA, Tat peptide displacement FRET; stronger effect = higher value | z-score (no concentration beside the values) | actives 0.6% (n = 100,000);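 note: score is relative to mean and SD of negative controls; some compounds called inactive have numbers as strong as hits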
# CDC25B-CDK2 inh: primary biochemical HTRF screen for blockers of M-phase inducer phosphatase 2 binding to CDK2/cyclin A. HTRF CDC25B-CDK2/CyclinA binding, anti-His/anti-Flag; stronger effect = higher value. z-score (test concentration not listed). actives 0.72% (n = 94,000);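 note: score is relative to mean and SD of negative controls; strong numbers were not always called active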
# * marks the source's active call; other numbers are inactive results; . = no result given.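 Rule for the calls: active = z-score from 3 up in half or more of its runs; inactive = the rest.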
SMILES,TAR Tat displ,CDC25B-CDK2 inh
O=C(NC1CCCC1)c1c(-c2ccccc2)c(-c2ccccc2)n[nH]c1=O,-0.16,-2.1
Cc1cn2c(=O)c(S(=O)(=O)NCCc3ccccc3)c(C)nc2s1,-0.38,.
Cc1ccc(Nc2c(-c3ccc4c(c3)CCCC4)c(=O)c2=O)cc1N(C)C,0.23,.
Cc1ncc(CO)c(CNc2ccc(Cl)cc2)c1O,-0.06,.
Cc1ccc(-c2nnc(C3CCN(S(=O)(=O)c4ccc(C(C)(C)C)cc4)CC3)o2)cc1,-0.4,-2.8
N#Cc1c(N)c(C#N)c2c(c1-c1ccco1)Cc1ccccc1-2,.,-1.3
O=C1c2cccc(Oc3ccc(Cl)cc3)c2C(=O)N1CC1CCCO1 (configuration not stated),.,-2.6
O=C(COCc1cc(-c2cccs2)on1)N1CCN(C2CCCCC2)CC1,1.1,.
O=c1c(-c2ccc(Cl)cc2)c(N2CCOCC2)c1=O,0.35,.
CCOC(=O)C(C#N)=c1sc(=C(C#N)C(=O)OCC)s1,.,-2.2
CCc1cc2c(cc3c(=O)n(CC(=O)NCCCN4CCCC4=O)ncn32)s1,.,-1.9
Oc1[nH]c2ccccc2c1N=Nc1nnc(-c2ccccc2)c(-c2ccccc2)n1,.,-1.4
Oc1ccccc1-c1n[nH]c(=S)n1-c1ccccc1,.,0.31
Fc1ccc(-c2noc(-c3ccc4c(c3)CCO4)n2)cc1,.,-1.1
C=CCSc1nc(N)cc(=O)[nH]1,2.4,-1.1
O=C(O)CCNC(=O)c1cncc(Br)c1,.,-0.54
Cn1cc(NC(=O)NCc2ccc3c(c2)OCO3)c2ccccc2c1=O,-0.29,.
CNC(=O)c1c(NC(C)=O)sc2c1CCC2,-0.72,.
COc1ccc(Cl)cc1S(=O)(=O)N1CCC(c2ccncc2)CC1,1.7,.
NC(=O)CSc1ccc2nnc(-c3ccc(F)cc3)n2n1,.,-0.8
Cc1cccc(NC(=O)CCc2nnc3ccc(N4CCC(C)CC4)nn23)n1,0.53,.
CCC(CC)C(=O)N1CCN(Cc2cc(=O)c3ccccc3[nH]2)CC1,0.08,.
O=C(Cn1cnc(S(=O)(=O)N2CCOCC2)c1)Nc1ccc(Cl)cc1,0.51,.
CN1CCN(C(=O)CN2C(=O)CCn3nc(-c4cn(C)c5ccccc45)cc32)CC1,1.8,.
CN1C(=O)c2ccccc2C(C(=O)NCc2cccs2)C1c1cn(C)c2ccccc12 (configuration not stated),.,-1.4
SMILES,TAR Tat displ,CDC25B-CDK2 inh
COc1ccccc1N1CN(Cc2ccco2)CNC1=S,.,-1.3
Cn1c(CC#N)n[nH]c1=S,.,-1.7
CCCn1cc(C2CC(=O)N(c3cccc(O)c3)C2=O)c2ccccc21 (configuration not stated),1,-1.5
O=C(C1=C(O)C(=O)N(Cc2cccnc2)C1c1cccc(Oc2ccccc2)c1)c1cccs1 (configuration not stated),1.1,-0.94
CCOc1ccc(C2CC(=O)Nc3nc(SC)[nH]c(=O)c32)cc1OC (configuration not stated),1.5,-2.1
CCOc1ccc2c(c1)C(C)=CC(C)(C)N2S(=O)(=O)c1ccc(Br)cc1,0.41,-1.2
COC(=O)c1sccc1NC(=O)Nc1ccc2nc3n(c(=O)c2c1)CCCC3,0.78,.
Cc1nc2ccc(Cl)cn2c(=O)c1NC(=O)c1ccccc1,1.1,.
CCc1nn2c(=O)cc(CSc3nnc(-c4ccco4)n3C)nc2s1,0.23,.
Cc1nc(SCC(=O)O)c2oc3ccccc3c2n1,0.47,-2.5
CC(Sc1nnc(-c2ccncc2)o1)C(=O)NCc1cccs1 (configuration not stated),-2.1,-0.35
O=C(Nc1ccc2c(c1)nc1n2CCN(C2CCCCC2)C1)c1ccco1,31*,7.1*
CCn1nc(C)c(NC(=O)c2ccc(Cl)cc2)c1C(=O)OC,.,-2.8
COc1ccc(OC)c(-c2noc(N3CCN(c4ccccc4F)CC3)n2)c1,1.1,.
Cc1cc(OC(=O)c2cc(-c3cccs3)on2)ccc1Cl,2.7,-1.4
COc1ccc(SCc2cc(=O)n3nc(-c4ccc(OC)cc4)sc3n2)cc1,0.9,-1.3
Cc1ccc(-n2ncc3c(=O)n(-c4ccc(C)c(C)c4)c(C)nc32)cc1,.,-0.64
COc1ccc(CC2=NS(=O)(=O)c3cc(S(=O)(=O)N4CCCCC4)ccc3N2)cc1OC,1.4,-1.7
CC[n+]1c(/C=C/c2ccc(N(C)C)cc2)sc2cc(NC(C)=O)ccc21,-12,-3.5
Cc1nnsc1-c1c(C(=O)Oc2ccccc2)c(C)nn1-c1ccccc1,.,-0.56
Cc1cc(C)cc(N2CC(C)Cn3c2nc2c3c(=O)n(CCN3CCOCC3)c(=O)n2C)c1 (configuration not stated),.,-1.7
Cc1ccsc1CCNC(=O)CCS(=O)(=O)c1ccc2c(c1)CCN2C(=O)C1CC1,0.03,.
Fc1ccccc1N1CCN(c2ncc3c(n2)CCN(Cc2ccccc2)C3)CC1,2.1,.
COc1ccc(S(=O)(=O)N2CCC(C)CC2)cc1,.,-1
Cn1c(=O)c2c(nc(Cl)n2Cc2ccc(F)cc2)n(C)c1=O,-0.18,-0.54
SMILES,TAR Tat displ,CDC25B-CDK2 inh
Cc1ccc(-c2ccc(=O)[nH]n2)cc1S(=O)(=O)N1CCCCC1C (configuration not stated),1.1,1.3
Cc1cccc(C)c1OCC(O)CNS(=O)(=O)c1ccccc1C(=O)N1CCCCC1 (configuration not stated),.,-0.44
CC(=O)Nc1c2ccccc2n2c(C)nc3ccc(Cl)cc3c12,0.3,-0.93
CCOC(=O)CC(=O)c1c[nH]c2ccccc12,0.57,-0.91
Cc1cc(F)ccc1S(=O)(=O)Nc1ccc2oc3c(c2c1)CC(C)CC3 (configuration not stated),-0.66,1.8
CCOC(=O)c1cc(-c2ccc(S(=O)(=O)N3CCCC(C(=O)OCC)C3)s2)on1 (configuration not stated),0.52,.
CC(C)Cn1cc(NC(=O)NC2CCCCC2)c2ccccc2c1=O,2.4,.
CC(=O)N1CC(=O)N/C(=C/c2ccco2)C1=O,.,-2.2
Cc1nn(CCCC(=O)N2CCN(C3CCCCC3)CC2)c(=O)c2c1sc1ccccc12,3.3,-2
CC1CCCCC1NC(=O)C1(C)Cn2c(cc3sccc32)C(=O)N1CCCN1CCOCC1 (configuration not stated),0.83,-1.5
O=C(c1ccccc1)c1ccc2nc(N3CCN(C(=O)c4ccco4)CC3)c3nncn3c2c1,-0.11,1.3
CCCC1c2cccn2CCN1C(=O)Nc1cc(F)ccc1F (configuration not stated),-1.1,.
Nc1nc2ccc(Oc3ccc4nc(N)sc4c3)cc2s1,1.1,-1
O=C(NCCc1ccccc1)c1sc(=S)n2c1[nH]c(=O)c1ccccc12,1.1,.
Cc1c(C(=O)Nc2cccc(Cl)c2)sc2nc3n(c(=O)c12)CCC3,2.1,.
COc1cccc(-c2n[nH]c3c2C(c2ccco2)N(C)C3=O)c1 (configuration not stated),1.2,-0.78
Cc1cc2[nH]c(=O)c(=O)[nH]c2cc1S(=O)(=O)N1CCC(C)CC1,1.9,.
O=c1[nH]nnc2sc(-c3ccccc3)cc12,-2.4,-1.1
CC(=O)N1CCC2(CC1)OC(=O)C(C)=C2C(=O)Nc1cc(C)cc(C)c1,1.6,.
C=C(C)Cn1c(Cc2ccccc2)nc2ccccc21,1.4,0.57
O=C1NC(=O)c2cc([N+](=O)[O-])c(SCc3ccc(Cl)cc3)cc21,.,-1.1
O=S(=O)(CCN(CC1CCCO1)S(=O)(=O)c1ccc(Br)cc1)N1CCNCC1 (configuration not stated),1.9,.
Cc1cc(-c2ccc(C(C)C)c(S(=O)(=O)NCCc3nc4ccccc4[nH]3)c2)on1,-0.83,.
Cc1ccc2ccc(C(=O)O)cc2n1,-0.11,-0.89
Cn1c(=O)c2c(-c3ccccc3F)n3c(c2n(C)c1=O)C(c1ccc(O)cc1O)Nc1ccccc1-3 (configuration not stated),-1.6,-1.8

# As entered above:
# Reading for Cc1cccc(C)c1OCC(O)CNS(=O)(=O)c1ccccc1C(=O)N1CCCCC1 (configuration not stated) under CDC25B-CDK2 inh: -0.44
# Reading for Cc1cc2[nH]c(=O)c(=O)[nH]c2cc1S(=O)(=O)N1CCC(C)CC1 under TAR Tat displ: 1.9
# Reading for CC1CCCCC1NC(=O)C1(C)Cn2c(cc3sccc32)C(=O)N1CCCN1CCOCC1 (configuration not stated) under CDC25B-CDK2 inh: -1.5
# Reading for Cc1ccc(-c2ccc(=O)[nH]n2)cc1S(=O)(=O)N1CCCCC1C (configuration not stated) under CDC25B-CDK2 inh: 1.3
# Reading for CCCC1c2cccn2CCN1C(=O)Nc1cc(F)ccc1F (configuration not stated) under TAR Tat displ: -1.1

# Record cards, from the list above. Order of values: TAR Tat displ, CDC25B-CDK2 inh
# Profile of CCCC1c2cccn2CCN1C(=O)Nc1cc(F)ccc1F (configuration not stated) : -1.1, .
# Profile of COc1cccc(-c2n[nH]c3c2C(c2ccco2)N(C)C3=O)c1 (configuration not stated) : 1.2, -0.78
# Profile of Cc1ccc2ccc(C(=O)O)cc2n1 : -0.11, -0.89
# Profile of Cc1nn(CCCC(=O)N2CCN(C3CCCCC3)CC2)c(=O)c2c1sc1ccccc12 : 3.3, -2

# Remaining list, next part.
SMILES,TAR Tat displ,CDC25B-CDK2 inh
CC1CCC(NC(=O)C2(C)Cn3c(cc4occc43)C(=O)N2CCN(C)C)CC1 (configuration not stated),2.5,.
O=c1[nH]c(-n2cccc2)c(-c2c(-c3ccc(Cl)cc3)[nH]c3[nH]c(=O)[nH]c(=O)c23)c(=O)[nH]1,-5.2,2.8
O=c1c2c([nH]c(=S)n1Cc1ccco1)-c1ccccc1CC21CCCCC1,.,-2.6
O=C(CN1C(=O)c2ccccc2S1(=O)=O)Nc1cccc(O)c1,.,-0.78
COc1ccc(-n2nnc(S(=O)(=O)c3ccccc3)c2C)cc1,-0.56,-2.2
CC(=O)N1c2ccc(S(=O)(=O)N3CCCCC3)cc2CC1C(=O)NCCCN1CCCC1=O (configuration not stated),0.88,.
O=C(CN1C(=O)c2cccnc2Oc2ccc(Cl)cc21)NCc1ccco1,0.24,.
O=C1CC(NC2CCN(c3ncccn3)CC2)C(=O)N1c1ccc(Cl)cc1 (configuration not stated),-0.98,-1.5
COC(=O)c1sc(-c2cccs2)cc1NS(=O)(=O)c1cc(C)c(Cl)cc1C,.,-1.3
c1coc(-c2nc3n(n2)C2(CCCCC2)[C@@H]2CCCC[C@@H]2N3)c1,1.7,-0.75
Cc1ccc(C)c(NS(=O)(=O)c2ccc3c(c2)NC(=O)CC(C)S3)c1 (configuration not stated),0.62,.
Cc1ncc([N+](=O)[O-])n1CCOC(=O)c1ccco1,0.49,-0.41
CN(C)c1ccc(CN2CCc3nc(N4CCN(c5ncccn5)CC4)ncc3C2)cc1,0.07,.
Cc1ccc(-c2noc(-c3cccnc3NCc3ccccc3)n2)cc1,1.7,-0.63
Cc1c(C(c2cccs2)c2c(C)n(C)n(-c3ccccc3)c2=O)c(=O)n(-c2ccccc2)n1C,1.1,0.09
CC(=O)Nc1cccc(OCCCNS(=O)(=O)c2cccc3nonc23)c1,.,-1.9
CCc1nc(SCC(=O)NC2CCCC2)c2c(=O)n(C)c(=O)n(C)c2n1,-0.3,.
CCCCNc1sc(S(=O)(=O)CC)nc1S(=O)(=O)c1ccc(C)cc1,0.36,-0.54
Cc1ccc(-c2noc(CN(C3CCCCC3)S(=O)(=O)c3ccccc3)n2)cc1,2.1,-2.1
Cn1cc[nH]c1=S,2,.
N#CC1=C(N)OC2=C(C(=O)CC(c3ccccc3)C2)C1c1ccccc1C(F)(F)F (configuration not stated),.,-0.57
O=C(O)c1cc2nc3c(c(C(F)(F)F)n2n1)CCc1ccccc1-3,2.3,.
COc1ccccc1N1CC(c2nc3ccccc3[nH]2)CC1=O (configuration not stated),1.9,-2
COc1ccc(-n2ncc(NC(=O)N3CCOCC3)c2C)cc1,.,-0.82
O=C(Sc1ccccc1)c1cccc(Cn2cc(C(F)(F)F)ccc2=O)c1,.,-1.5

# Laid out differently: entries from further up.
# Below each SMILES: TAR Tat displ, CDC25B-CDK2 inh
> CCCCNc1sc(S(=O)(=O)CC)nc1S(=O)(=O)c1ccc(C)cc1
  0.36, -0.54
> COC(=O)c1sc(-c2cccs2)cc1NS(=O)(=O)c1cc(C)c(Cl)cc1C
  ., -1.3
> CCc1nc(SCC(=O)NC2CCCC2)c2c(=O)n(C)c(=O)n(C)c2n1
  -0.3, .
> O=C(O)c1cc2nc3c(c(C(F)(F)F)n2n1)CCc1ccccc1-3
  2.3, .
> N#CC1=C(N)OC2=C(C(=O)CC(c3ccccc3)C2)C1c1ccccc1C(F)(F)F (configuration not stated)
  ., -0.57
> O=c1c2c([nH]c(=S)n1Cc1ccco1)-c1ccccc1CC21CCCCC1
  ., -2.6
> CC(=O)Nc1cccc(OCCCNS(=O)(=O)c2cccc3nonc23)c1
  ., -1.9

# Following part:
SMILES,TAR Tat displ,CDC25B-CDK2 inh
O=C(NC(Cc1ccccc1)C(=O)Oc1ccc2c3c(c(=O)oc2c1)CCC3)OCc1ccccc1 (configuration not stated),.,-1.6
CSc1cccc(NC(=O)c2nnn(-c3ccccc3Br)c2C)c1,1.1,-0.12
CCN(C(=O)CSc1nnc(-c2ccoc2C)o1)c1ccccc1,0.55,-2.2
CCC1CN(S(=O)(=O)c2ccc3c(c2)NC(=O)CCS3)c2cc(Cl)ccc2O1 (configuration not stated),0.19,.
CC1(C)CCc2cc(CN3CCN(c4ccc(F)cc4)CC3)ccc2O1,.,-0.16
O=C(NCCSCc1ccco1)C1Cc2ccccc2N1C(=O)c1ccccc1 (configuration not stated),0.47,.
O=C1C(=O)N(c2ccccc2)c2ccccc21,3.1,.
COc1ccc(CSC2=C(C#N)C(=O)NC3(CCCCC3)S2)cc1,.,-2
CCC(C)NC(=O)CCSc1nc(-c2ccc3c(c2)OCO3)cc(C(F)(F)F)n1 (configuration not stated),0.78,-1.7
CCN1CCN(Cc2ccc(NC3=NS(=O)(=O)C(c4ccc(C)cc4)=C3C)cc2)CC1,-0.38,-0.92
O=C(NC(NC(=S)Nc1ccc(Cl)cc1Cl)C(Cl)(Cl)Cl)c1ccccc1F (configuration not stated),.,2.8
CCOC(=O)c1noc2ncnc(N(C)c3cccc(Cl)c3)c12,-0.25,.
